Screening data (PubChem)
Hsc70 ATP site: small molecules displacing fluorescent ligand from Hsc70 – biochemical, fluorescence polarization, primary screen (AID 568); Hsc70 fluorescence polarization, probe displacement; higher % means a stronger effect; strong numbers were not always called active; displacement, % at 20 µM, or IC50 in µM where a hit was titrated; 83,000 tested, under 10 active;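 active means displacement above 50% without optical interference and an IC50 on retest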;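 further: ATPase domain with a fluorescein-tagged ATP probe; 0% = vehicle and 100% = excess ADP; read after one hour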
MT1-MMP promoter: MT1-MMP gene expression reporter suppression – cell-based, luciferase reporter, luminescence (AID 618); calls from a first round at 10 µM; hits with a dose series show EC50 in µM; 87,000 compounds, 0.62% hits; MT1-MMP promoter luciferase reporter cells, luminescence;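 active means over half of the reporter light lost at 10 µM or EC50 under 50 µM; inactive means the rest and hits that failed the dose series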;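 further: actives suppress MT1-MMP promoter-driven transcription so potencies describe inhibitors; HT1080 fibrosarcoma cells; overnight exposure; toxic or luciferase-blocking compounds were not removed from the actives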
WNV protease inh: blocks West Nile virus NS2B-NS3 protease activity. 65,000 compounds, 0.18% hits. z-score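 (tested at a level between 10 and 100 µM)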. P06935. WNV NS2B-NS3 protease, fluorogenic substrate Ex360/Em465; hits give low values;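 active means z-score at -3 or under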;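 further: score is relative to mean and spread of the compound wells of a plate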
Target sequence (P06935 1371-1501 limits assumed): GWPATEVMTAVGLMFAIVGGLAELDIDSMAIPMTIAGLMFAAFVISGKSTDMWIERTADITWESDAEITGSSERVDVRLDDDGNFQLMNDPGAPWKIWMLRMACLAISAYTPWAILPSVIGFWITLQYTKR
Target sequence (P06935 1502-1679 limits assumed): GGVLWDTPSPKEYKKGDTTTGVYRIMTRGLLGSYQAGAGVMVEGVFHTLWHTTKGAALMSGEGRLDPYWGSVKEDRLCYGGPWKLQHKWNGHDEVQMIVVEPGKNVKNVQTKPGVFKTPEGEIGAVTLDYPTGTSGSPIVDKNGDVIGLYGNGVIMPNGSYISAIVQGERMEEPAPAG
An asterisk follows results filed as active; i = inactive; / = not tested or not shown. The list is partial; rates above refer to the full screens.

SMILES | Hsc70 ATP site | MT1-MMP promoter | WNV protease inh
CCn1nc(CC(=O)Nc2ccc(-n3cnnn3)c(C)c2)c2ccccc2c1=O | 1.7% | i | -0.48
CC(=O)Nc1nc(C)c(C(C)=O)s1 | -2.2% | i | /
COc1cccc(N2CCN(C(=O)CN(c3ccc(C)cc3)S(=O)(=O)c3c(C)n[nH]c3C)CC2)c1 | -4.3% | i | 0.03
Cc1nn(-c2ccccc2)c2sc(C(=O)OC3CCOC3=O)cc12 (stereo unspecified) | -1.3% | i | -3.5*
c1cc2c3c(cccc3c1)NC1(CCCCCC1)N2 | 1.3% | i | -0.04
Cc1nc2c(c(=O)n1Cc1ccco1)c1nc3ccccc3nc1n2Cc1ccccc1 | -4.6% | i | 1.8
CCOC(=O)C1=C(CC)Nc2ccccc2N=C1NC(=O)Cn1cnc2ccccc2c1=O | 0.2% | i | 0.9
CCN(CCCNC(=O)CCCn1c(=O)[nH]c2ccccc2c1=O)c1cccc(C)c1 | -8.7% | i | 0.4
CC(=O)N1C(=O)C2(Nc3ccccc3N2)c2ccccc21 | -1.2% | i | -0.34
COc1ccc(Cc2nnc3n2N=C(c2cc4ccccc4o2)CS3)cc1OC | 1.1% | i | -0.4
O=C(NCc1ccccc1)C1C(=O)N(Cc2ccccc2)C(=O)C1C1(O)CCCC1 (stereo unspecified) | 9.8% | i | 0.22
Fc1ccc(-c2csc3nnc(SCc4cccnc4)n23)cc1 | -0.8% | i | 0.57
CCCCCOC(=O)CSc1nc2c(c(=O)[nH]c(=O)n2C)n1CCc1ccccc1 | 4.1% | i | -0.68
COc1ccc(CCNC(=O)c2c(O)c3cccc4c3n(c2=O)CC4)cc1OC | -5.1% | i | 1.4
COc1cc(OC)nc(NC(=O)CS(=O)(=O)c2ccccc2)n1 | -3.7% | i | 0.04
CCc1[nH]nc2c1C1(CCN(C(=O)c3ccccc3)CC1)C(C#N)=C(N)O2 | 3.8% | i | 0.65
Cc1cccc(NC2=NCC(=O)N2Cc2ccccc2)c1 | 2.6% | i | -0.84
COc1ccc(CN2C3CCCC2CC(NC(=O)Nc2ccccc2C)C3)cc1 (stereo unspecified) | 3.4% | i | /
COC(=O)CNC(=O)CN1C(=O)N(c2cccc(Cl)c2)C(N(O)C(=O)Nc2cccc(Cl)c2)C1(C)C (stereo unspecified) | -2.1% | i | /
COCCn1nnnc1C(c1ccccc1Cl)N1CCN(c2ccccc2OC)CC1 (stereo unspecified) | -0.5% | i | 0.31
CC1=C(C(=O)Nc2ccccn2)C(c2ccc(F)cc2)n2ncnc2N1 (stereo unspecified) | -3.4% | i | 0.44
O=C(CSc1nnc(-c2ccccn2)n1Cc1ccccc1)N1CCCC1 | -0.6% | i | 0.48
COC(C(=O)Nc1ccc(S(=O)(=O)N2CCCCC2)cc1)c1ccccc1 (stereo unspecified) | -0.9% | i | /
CCc1cccc(NC(=O)CS(=O)Cc2nc(-c3ccc(C)cc3)oc2C)c1 (stereo unspecified) | 0.9% | i | -0.09
CNC(=O)CSc1nnc(-c2ccc(S(=O)(=O)N3CCCC3)cc2)n1-c1cccc(C)c1C | -1.7% | i | -0.19
O=C(O)C1C2CCC(C2)C1C(=O)NCCCn1ccnc1 (stereo unspecified) | -9.3% | i | 1
O=C(Nc1cccnc1)c1cc(-c2ccc3c(c2)OCO3)on1 | -7.4% | i | 1.2
CC1Oc2ccccc2N(CC(=O)c2cccc(Cl)c2)C1=O (stereo unspecified) | -4.0% | i | 1.7
COC(=O)c1ccccc1NC(=O)NCc1ccc2c(c1)OCO2 | -1.5% | i | 0.5
COC(=O)COc1ccc(NC(=O)C2CCCO2)cc1 (stereo unspecified) | -4.6% | i | -0.19

Three records drawn at random from those above:
SMILES | Hsc70 ATP site | MT1-MMP promoter | WNV protease inh
COC(=O)c1ccccc1NC(=O)NCc1ccc2c(c1)OCO2 | -1.5% | i | 0.5
COC(=O)COc1ccc(NC(=O)C2CCCO2)cc1 (stereo unspecified) | -4.6% | i | -0.19
O=C(CSc1nnc(-c2ccccn2)n1Cc1ccccc1)N1CCCC1 | -0.6% | i | 0.48

One compound at a time, from the list above. Order of screens: Hsc70 ATP site | MT1-MMP promoter | WNV protease inh
Entry for O=C(Nc1cccnc1)c1cc(-c2ccc3c(c2)OCO3)on1 = -7.4% | i | 1.2
Entry for CC1Oc2ccccc2N(CC(=O)c2cccc(Cl)c2)C1=O (stereo unspecified) = -4.0% | i | 1.7
Entry for O=C(O)C1C2CCC(C2)C1C(=O)NCCCn1ccnc1 (stereo unspecified) = -9.3% | i | 1
Entry for CNC(=O)CSc1nnc(-c2ccc(S(=O)(=O)N3CCCC3)cc2)n1-c1cccc(C)c1C = -1.7% | i | -0.19
Entry for CCc1cccc(NC(=O)CS(=O)Cc2nc(-c3ccc(C)cc3)oc2C)c1 (stereo unspecified) = 0.9% | i | -0.09

(list continues)
SMILES | Hsc70 ATP site | MT1-MMP promoter | WNV protease inh
CCN1C(=O)c2cccc3c(S(=O)(=O)Nc4nc(C)cs4)ccc1c23 | -0.9% | i | -0.18
Cc1ccc2[nH]c(C(=O)O)c(-c3ccccc3)c2c1 | -0.9% | i | 0.46
COCCNC(=O)c1cc2cc(Br)cc(OC)c2oc1=O | -0.9% | i | 0.69
Cc1nc(-c2cccc(S(=O)(=O)N3CC(C)OC(C)C3)c2)cs1 (stereo unspecified) | -3.3% | i | 0.31
C=CCn1c(SCCN2CCCCC2)nc2c1c(=O)[nH]c(=O)n2C | 2.3% | i | -0.8
O=C(Nc1ccc(N2CCN(C(=O)c3ccco3)CC2)cc1)c1ccccc1F | -0.5% | i | 0.6
CCN(CC)CCN1C(=O)C(=O)/C(=C(/O)c2ccc(OC)c(OC)c2)C1c1ccccn1 (stereo unspecified) | -3.4% | i | 1.5
O=S(=O)(c1ccccc1)N1CCN(c2ncccn2)CC1 | 3.5% | i | /
O=c1[nH]c2ccccc2c(=O)n1CCCO | 1.4% | i | /
O=C(CSc1nnnn1-c1ccccc1)c1cc2ccccc2oc1=O | 0.0% | i | -0.37
COC(=O)Nc1ccc(S(=O)(=O)N2CCCC(C(=O)Nc3cccc4c3OCCO4)C2)cc1 (stereo unspecified) | -2.1% | i | 0.66
CCC(C)[C@H](NC(=O)NCc1ccccc1Cl)C(=O)OC (stereo partly specified) | -3.2% | i | 1.2
O=C(CCCOc1ccccc1)NCC1CCCO1 (stereo unspecified) | -2.1% | i | -0.95
CC1(C)CC(=O)C2=C(C1)OC(N)=C(C#N)C21CCC2(CC1)OCCO2 | 6.9% | i | -0.06
Cn1c(=O)cc(SCC(=O)Nc2ccc3c(c2)OCO3)c2ccccc21 | 3.9% | i | 0.94
N=c1c2c3c(sc2nc2n1CCC2)CCCC3 | -2.8% | i | 1.5
Nc1nc(N2CCCCC2)nc(N2CCCCC2)n1 | -0.2% | i | /
Cc1nc(=O)c(-c2ccccc2)c(C)n1CCCO | 3.0% | i | -0.42
CCOC(=O)N1CCN(c2c(NCCCN(CC)c3cccc(C)c3)c(=O)c2=O)CC1 | -4.0% | i | 1.4
Cc1ccc(CN2CCC(C(=O)NCCC(C)C)CC2)o1 | -5.3% | i | 0.78

A different layout for some results above:
Values in the order – Hsc70 ATP site, MT1-MMP promoter, WNV protease inh
Nc1nc(N2CCCCC2)nc(N2CCCCC2)n1
    -0.2%, i, /
Cc1nc(=O)c(-c2ccccc2)c(C)n1CCCO
    3.0%, i, -0.42

Next section
SMILES | Hsc70 ATP site | MT1-MMP promoter | WNV protease inh
CC(=O)c1c(C)n([O-])c2ccc(C)cc2[n+]1=O | 3.6% | i | 0.55
CCC(c1nnnn1C(C)(C)C)N(Cc1cccs1)Cc1cc2cc(C)c(C)cc2n2nnnc12 (stereo unspecified) | -13% | i | /
O=C(Nc1cccc(Cl)c1)NC1CCCCC1 | 3.2% | i | -0.75
CCCCOc1ccc(C2CC(=O)NC2=O)cc1 (stereo unspecified) | -4.1% | i | -0.66
O=C(O)c1ccccc1C(=O)Nc1ccccc1 | -1.1% | i | 1.3
COC(=O)C(Cc1cnc(Cl)s1)(C(=O)OC)c1ccc([N+](=O)[O-])cc1 | 0.5% | i | /
Cn1c(-c2ccc3c(c2)OCO3)cnc1NC(=O)CCC(=O)NCCc1ccccc1 | -3.2% | i | -0.94
O=C(NCCCn1ccnc1)c1ccco1 | -1.0% | i | 0.81
O=C(CSc1nc(-c2ccccc2)c(-c2ccccc2)o1)N1CCOCC1 | 3.8% | i | 0.28
CCOC(=O)Cc1csc(NC(=O)c2ccncc2)n1 | 0.7% | i | /
Clc1ccc(N2COC3c4cccc5cccc(c45)C32)cc1 (stereo unspecified) | 2.0% | i | /
Cc1ccc(CN(C(=O)c2csnn2)C(C(=O)NC2CCCC2)c2ccc(C)o2)cc1 (stereo unspecified) | 7.4% | i | /
COC(=O)CC(C(=O)Nc1cc(C(=O)OC)cc(C(=O)OC)c1)N1CCN(C)CC1 (stereo unspecified) | -0.5% | i | 0.51
Cc1ccc(S(=O)(=O)N(CC(=O)N2CCCC2)C2CCCCC2)cc1 | 1.7% | i | 1.4
Nc1nc(C23CC4CC(CC(C4)C2)C3)cs1 | 3.2% | i | /
CN1CCN(c2ncnc3c2sc2nc(N4CCOCC4)c4c(c23)CCC4)CC1 | 1.1% | i | /
COc1ccc(Cc2nnc(SCC(=O)NC(C)c3ccccc3)o2)cc1 (stereo unspecified) | -0.3% | i | -0.01
CCCCC(CCC(=O)Nc1ccccc1C(=O)OCC)C(=O)O (stereo unspecified) | 1.6% | i | -0.59
Cc1ccc(C(=O)CC2(O)C(=O)N(C)c3ccc(Br)cc32)c(C)c1 (stereo unspecified) | -1.3% | i | -0.65
Oc1ccc(CNC2CCCCC2)cc1 | 2.6% | i | -0.01
Cc1cccc2c(=O)cc(C)n(CC(=O)N3CCOCC3)c12 | 2.8% | i | -0.47
CCCn1c(SCC(=O)c2cc(OC)ccc2OC)nnc1C(C)C | 0.2% | i | -1.2
CN(C)S(=O)(=O)c1ccc(Cl)c(C(=O)NCc2ccco2)c1 | 2.8% | i | /
CCOc1ccc(-c2cc(C(=O)O)c3ccccc3n2)cc1 | -1.6% | i | /
C/C(O)=C(\C#N)c1nnc2n1CCCCC2 | 2.8% | i | 0.04
COCC(C)n1c(SCC(=O)N2CCCCC2)nc2ccccc2c1=O (stereo unspecified) | -2.9% | i | -0.13
O=C(O)Cc1ccc(C(=O)c2ccccc2)s1 | 2.6% | i | /
Cc1c(C(N)=O)sc(N)c1C(=O)OC(C)C | 0.2% | i | 1.6
CCOC(=O)c1cccc(NC(=O)Cn2cc3c(n2)CCC(C)C3)c1 (stereo unspecified) | 1.0% | i | 1.3
Cc1ccc(-c2nc3ccc(NS(=O)(=O)c4ccccc4)cc3[nH]2)o1 | 0.9% | i | /
COc1cccc(OC)c1C(=O)Nc1nc2ccc(S(C)(=O)=O)cc2s1 | 0.6% | i | 0.95
O=C1CSC(c2cccc(F)c2)N1c1ccccc1F (stereo unspecified) | -1.3% | i | -0.93
COC(=O)c1[nH]c2cc(OC)ccc2c1N | -3.0% | i | 1.4
CCOc1ccccc1NC(=O)CSc1nccn1-c1ccccc1 | -2.2% | i | 0.41
O=C(c1ccccc1F)N(Cc1ccc2c(c1)OCO2)Cc1cc2cc3c(cc2n2nnnc12)OCO3 | -6.1% | i | /
CCN(CC)/C(=N/O)NC(=O)NS(=O)(=O)c1ccc(C)cc1 | 12% | i | 0.03
CCc1c(O)nc(SCC(=O)N2CCOCC2)n(-c2ccccc2)c1=O | -4.9% | i | -1.1
O=C(O)CCCC(=O)Nc1ccc(Br)cc1C(=O)O | 2.3% | i | 0.24
Cn1c(=O)n(C)c2cc(NC(=O)CCl)ccc21 | 2.2% | i | /
COc1cccc(C(c2nnnn2Cc2ccccc2)N2CCN(C3CCCC3)CC2)c1OC (stereo unspecified) | -2.9% | i | -0.49
CCN(CC)S(=O)(=O)c1cccc(-c2cn3cc(C)ccc3n2)c1 | 4.4% | i | /
CCn1c(SC(C)C(=O)O)nc2sc3c(c2c1=O)CCC3 (stereo unspecified) | -4.9% | i | 0.63
CCc1cc2cc(C)ccc2nc1SCC(=O)Nc1cc(C)on1 | -0.2% | i | /
O=C(C1CCN(S(=O)(=O)N2CCC3(CC2)OCCO3)CC1)N1CCC(Cc2ccccc2)CC1 | 1.1% | i | 0.02
CCC(C)[C@H](NC(=O)OC(C)(C)C)C(=O)N/N=C/C1=Cc2ccccc2OC1 (stereo partly specified) | 0.2% | i | /
Clc1ccccc1C1=Nn2c(nnc2-c2ccncc2)SC1 | 0.1% | i | -0.36
COc1ccc(NC(=O)NCc2ccncc2)c(OC)c1 | 6.0% | i | /
COc1cccc(Cn2c(NCc3ccccn3)nc3c2c(=O)n(C)c(=O)n3C)c1 | -0.8% | i | -0.85
COCCNC(=O)Cn1c(=O)n(C)c2ccccc21 | 3.5% | i | /
CC(C)(C)c1nc(NCCN2CCOCC2)c2nnn(Cc3ccccc3Cl)c2n1 | 2.9% | i | -0.24
CN1C(=O)/C(=C2/C=Cc3ccccc3N2CCCS(=O)(=O)O)SC1=S | -11% | i | 0.28
Cc1cccc(CCNS(=O)(=O)c2ccc3c(c2)oc(=O)n3C)c1 | 3.6% | i | 2.6
Cc1cc2c(ccc3c2no[n+]3[O-])nn1 | 3.8% | i | -0.75
